L929 necroptosis – L929 zVAD cell death inhibition | L929 zVAD necroptosis rescue, ATP luminescence, 24 h; with zVAD 60 µM | viability rescue, % at 10 µM | 220,000 tested, 0.38% active | AID 1377;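 active = activation, scaled between plate controls, above about 75%, limit read from the data; inactive = activation under that limit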;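 note: 0% = zVAD with DMSO and 100% = DMSO alone without zVAD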
KLK5 inh – inhibitors of human kallikrein 5; recombinant hK5, fluorogenic AMC substrate cleavage; AID 873; 210,000 tested, 0.59% active; inhibition, % at 5 µM; Q9Y337;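 active = inhibition of 40% or more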;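 note: 0% = enzyme controls without compound and 100% = no-enzyme blanks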
Target sequence (Q9Y337 67-293 limits assumed): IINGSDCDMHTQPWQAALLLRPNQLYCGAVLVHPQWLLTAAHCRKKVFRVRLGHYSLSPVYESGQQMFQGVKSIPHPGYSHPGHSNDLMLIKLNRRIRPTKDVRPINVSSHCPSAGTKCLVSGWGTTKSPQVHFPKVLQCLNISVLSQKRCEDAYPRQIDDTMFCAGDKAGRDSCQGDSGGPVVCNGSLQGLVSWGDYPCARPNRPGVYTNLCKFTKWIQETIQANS
Hck-Nef inh – human Hck-Nef kinase inhibition; 220,000 tested, 0.68% active; inhibition, % at 20 µM; Recombinant Hck-YEEI plus Nef, Z-Lyte FRET kinase assay;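 active = Hck-Nef kinase inhibition above about 50%, limit read from the data; inactive = inhibition below that limit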;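 note: 0% = DMSO with Hck plus Nef and 100% = Hck alone without Nef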
Rad51 HR inh – Rad51 (human) homologous recombination inhibition; 200,000 tested, 0.085% active; hRad51 DNA strand exchange, fluorescence dequenching; inhibition, % at 10 µM; Q06609;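 active = inhibition above 40% at the single screening dose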;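 note: 0% = DMSO control wells and 100% = blanks with heterologous ssDNA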
Target sequence (Q06609 whole entry, looked up): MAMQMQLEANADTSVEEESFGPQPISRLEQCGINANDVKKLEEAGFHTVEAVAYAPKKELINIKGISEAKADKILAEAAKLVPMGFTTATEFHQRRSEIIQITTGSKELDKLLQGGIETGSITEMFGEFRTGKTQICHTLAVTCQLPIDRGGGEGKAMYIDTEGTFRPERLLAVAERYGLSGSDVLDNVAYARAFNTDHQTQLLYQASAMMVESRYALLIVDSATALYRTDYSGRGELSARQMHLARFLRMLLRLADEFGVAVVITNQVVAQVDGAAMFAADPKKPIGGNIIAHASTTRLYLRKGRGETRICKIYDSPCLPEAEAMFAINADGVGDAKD
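material = hRad51 filaments on single-stranded DNA | timing = filaments 15 min 37 °C, then compound 30 min | signal = FRET fluorescence dequenching, excitation 485 nm, emission 520 nm | benchmarks = control wells and blank wells on each plate | evaluation = percent inhibition relative to plate controls and blanks | compound = 10 µM final, single point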
TNF death inh – TNF-alpha cell death inhibition in Jurkat FADD-/- cells; AID 463075; activation (protection from cell death), % at 10 µM; 220,000 tested, 0.068% active; Jurkat FADD-/- TNF necroptosis rescue, ATP luminescence, 24 h; 0 = TNF only, 100 = no-TNF cells;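 active = activation, meaning protection from cell death, of at least 50% relative to plate controls; inactive = activation below 50%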;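 note: necroptosis triggered by 40 ng/mL TNF-alpha added together with compound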
Cl transport mod – modulators of human KCC2 chloride dependent transport; Q9H2X9; B-score of Tl+ flux slope (higher = more flux/activation; lower = inhibition) at 10 µM; KCC2 cells, thallium flux FluoZin-2 fluorescence; AID 1456; 190,000 tested, 2.2% active;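 active = thallium flux slope and its plate-corrected score both differing from the plate sample mean at a set confidence after two filtering rounds, in either direction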;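 note: slope of fluorescence scaled to starting intensity during 10 to 20 s after thallium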
Thrombin inh – blocks human thrombin protease activity; P00734; alpha-thrombin, Boc-VPR-AMC fluorogenic substrate cleavage; inhibition, % at 5 µM; 220,000 tested, 0.26% active; AID 1046;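 active = inhibition at or above 40%; inactive = inhibition below 40%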;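 note: 0% = enzyme with no compound and 100% = wells without enzyme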
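System – human alpha-thrombin · Medium – pH 7.5 Tris (50 mM) with NaCl 150 mM, Tween 20 0.05% · Compound – single-point dosing at 5 µM, 0.2% DMSO · Incubation – enzyme reaction carried out at room temperature · Technique – fluorescence of released AMC, ex 355 nm, em 460 nm · Read-out basis – % inhibition of thrombin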
An asterisk follows results filed as active; . = not tested or not shown. An excerpt; rates above refer to the full screens.

no.	SMILES	L929 necroptosis	KLK5 inh	Hck-Nef inh	Rad51 HR inh	TNF death inh	Cl transport mod	Thrombin inh
1	N#Cc1cc([N+](=O)[O-])ccc1NC(=O)COC(=O)C12CC3CC(CC(C3)C1)C2	2.1	-11	12	.	0.0	-1.1	-5
2	O=C(CCc1ccccc1)NCCSc1ccccc1	0.9	-10	3	15	0.8	-0.12	-3
3	O=C(Nc1n[nH]c(C(F)(F)F)n1)c1cccs1	2.2	41*	-90	8	-0.8	0.12	5
4	CC(C)C(=O)O/N=C1\CCS(=O)(=O)c2sccc21	1.4	-15	-7	10	-1.1	-0.72	0
5	Cc1ccc(C(=O)N(C)c2nnc(-c3ccncc3)s2)cc1	18	-1	19	-6	0.1	.	-7
6	CC(/C=N/n1c(COc2ccccc2)n[nH]c1=S)=C\c1ccco1	0.8	-6	50*	-2	-6.4	121*	-5
7	COc1cc(NC(=O)c2ccc(Br)o2)ccc1NC(=O)C(C)C	0.4	-3	-1	5	0.5	0.19	2
8	FC(F)(F)c1cc(-c2ccc(Cl)cc2)nc(NCc2cccnc2)n1	-0.8	2	-14	3	1.6	.	-5
9	CCOC(=O)c1cc(C(=O)OCC)c(=O)[nH]c1N1CCCCC1	2.3	-4	-3	5	-0.9	-0.044	-8
10	COc1ccc(OCC(=O)Nc2cccc(NC(=O)COc3ccc(OC)cc3)n2)cc1	0.5	0	-1	4	-0.8	1	-4
11	CCN(CC)S(=O)(=O)c1cccc(NC(=O)COC(=O)C2CC3C=CC2C3)c1 (centres undefined)	1.7	-15	2	-1	-0.6	-0.33	3
12	Cc1cc(CNC(=O)CC2C(=O)NCCN2CC(c2ccccc2)c2ccccc2)on1 (centres undefined)	-0.4	.	-9	.	0.5	0.75	9
13	CC1=C(C(=O)Nc2ccccc2)C(c2cccnc2)n2ncnc2N1 (centres undefined)	0.4	29	5	-7	1.1	0.024	22
14	CCOC(=O)Cc1cc(=O)[nH]c(/N=C(\N)Nc2ccc(C)cc2C)n1	0.1	6	1	5	-0.4	-0.43	-2
15	O=C(Nc1ccc2oc(=O)ccc2c1)c1ccc(-c2ccccc2[N+](=O)[O-])o1	0.7	0	-2	4	-0.5	0.37	-5
16	CN(C)S(=O)(=O)c1cccc(NC(=O)COC(=O)/C=C/c2ccco2)c1	5.1	-4	1	-2	0.0	-1.4	-15
17	CCCCn1nnnc1NCc1cccnc1	0.5	3	8	.	-1.0	0.59	-4
18	C/C(=N\NC(=O)CNC(=O)C(c1ccccc1)c1ccccc1)c1ccc(C)cc1	1.2	-10	3	1	4.0	1	-10
19	COc1ccc2c(c1)CCc1sc(NC(=O)c3ccc(C)cc3)nc1-2	-0.2	-2	0	4	-0.3	-0.18	6
20	CCOC(=O)C1CCN(Cc2coc3ccc(Cl)cc3c2=O)CC1	0.0	4	1	-4	2.9	.	0
21	COc1ccc(C(=O)n2nc(C)cc2C)cc1Br	-0.1	-4	-4	5	-0.9	0.18	4
22	COc1cccc(OCC(=O)Nc2ccccc2C(N)=O)c1	-0.1	-39	3	1	-1.2	.	6
23	Brc1ccccc1-c1nnc(SCc2nc3ccccc3s2)o1	0.4	-19	3	-3	2.0	-1.8	0
24	CCOC(=O)N1CCN(S(=O)(=O)N(C)C)CC1	0.0	-10	-1	-5	0.6	-0.14	-6
25	COc1cccc(C(=O)O/N=C2\CCS(=O)(=O)c3sccc32)c1	1.5	-9	-57	12	0.5	-0.61	-1
26	O=c1c2ccccc2nc(-c2ccccc2)n1CCCn1ccnc1	-0.1	6	1	-1	-1.3	0.32	-3
27	Cc1ncccc1C(=O)N1CCCC(CNC(=O)C2(c3ccc(Cl)cc3)CC2)C1 (centres undefined)	1.3	1	23	3	1.0	-0.73	1
28	NS(=O)(=O)c1cccc(NC(=O)COC(=O)/C=C/c2ccco2)c1	2.1	-21	-5	9	0.2	0.008	0
29	COc1ccc(C2C(C#N)=C(N)Oc3cc(C)n(Cc4ccco4)c(=O)c32)cc1 (centres undefined)	0.2	-10	-2	-24	-2.8	0.42	-8
30	COc1ccccc1NC(=O)C(=O)N(c1cccnc1)C(C(=O)NC(C)(C)C)c1ccccc1F (centres undefined)	1.4	-9	18	0	0.8	-0.076	-11
31	Cc1cccc(C)c1Nc1nnc(SCC(=O)Nc2sccc2C#N)s1	-0.2	-3	2	.	1.2	-1.5	1
32	CC(=O)c1ccccc1OC(=O)c1c(F)cccc1F	-0.4	4	16	.	1.9	0.29	-9
33	Cc1ccc(NC2SC(=O)N(CC(=O)O)C2=O)cc1 (centres undefined)	-0.2	-19	-2	1	0.2	.	-1
34	CCOC(=O)c1ccc(NC(=O)C2(c3ccc(OC)cc3)CCCC2)cc1	-0.4	16	0	0	-3.1	.	-4
35	CC(=O)c1ccc(NC(=O)C2CC(c3ccc(F)cc3)=NO2)cc1 (centres undefined)	-0.1	4	3	2	2.7	0.0059	-7
36	O=C(CSc1nc(-c2ccco2)cc(C(F)(F)F)n1)Nc1cccnc1	0.2	-20	-2	4	-12	-0.45	0
37	O=C(COC(=O)C12CC3CC(CC(C3)C1)C2)NCCc1ccccc1	-0.1	6	-1	0	0.2	0.15	-4
38	N#CC(c1ccncc1)(c1ncc(C(F)(F)F)cc1Cl)N1CCOCC1 (centres undefined)	0.7	7	24	3	1.5	0.063	0
39	COc1ccc(C(C#N)Nc2ccccc2C)cc1 (centres undefined)	0.3	4	1	-2	-0.6	0.57	-1
40	COc1ccc(-c2nc(NC(C)=O)sc2-c2ccc(OC)cc2)cc1	5.3	-27	-18	20	-0.4	0.14	-2
41	O=C(Nc1ccncc1)c1ccccc1F	-0.5	16	-1	8	-6.5	.	-7
42	CC(=O)C(=Cc1ccc(O)cc1)C(C)=O	-0.2	-1	-16	.	2.1	0.063	-9
43	CCN(CC)S(=O)(=O)c1cccc(NC(=O)COC(=O)CNC(=O)c2cccc(F)c2)c1	0.1	3	14	-8	0.9	-0.94	2
44	COC(=O)C1=NN(c2ccc(Cl)cc2)C2C(=O)N(c3ccccc3OC)C(=O)C12 (centres undefined)	-0.3	-25	0	.	2.3	-0.43	-8
45	COc1ccc(S(=O)(=O)Nc2nc3ccccc3nc2NCC2CCCO2)cc1 (centres undefined)	1.0	0	13	.	2.8	0.18	-10
46	S=c1[nH]nc(-c2cccnc2)n1/N=C/c1cccs1	0.3	3	0	-1	-2.0	0.068	0
47	O=C(CSc1nnc(Cc2ccccc2)n1Cc1ccccc1)NCc1ccco1	-0.3	-22	9	7	-2.6	0.6	-6
48	O=C1c2ccccc2C(=O)N1c1ccc(-c2nc3ccccc3o2)cc1	1.3	-2	9	-9	1.0	.	-6
49	COc1ccc(N=Cc2nc(-c3ccccc3)oc2OC(C)=O)cc1	-0.3	15	18	10	0.4	-1.3	1
50	COc1ccccc1-n1c(-c2ccc(NS(C)(=O)=O)cc2)n[nH]c1=S	-0.4	4	-2	.	0.3	-0.34	-4
51	Cn1c(=O)c2c(nc(-c3ccccc3)n2C)n(Cc2ccccc2)c1=O	0.7	-20	4	-6	-0.1	-0.27	-3
52	C=CCSc1n[nH]c(-c2cccs2)n1	0.8	-5	4	3	0.4	0.3	2
53	CCCCc1nc(NCC2CCCO2)c(C#N)c2c1COC(C)(C)C2 (centres undefined)	0.5	12	-1	6	-1.8	-0.53	-4
54	CCN(CC)S(=O)(=O)c1ccc(OC)c(NC(=O)/C=C/c2ccco2)c1	0.0	-2	3	.	-1.4	-0.78	-9
55	O=C(Nc1ccc([N+](=O)[O-])c(NC(=O)C2CCCO2)c1)C1CCCO1 (centres undefined)	0.1	-9	4	17	-0.6	-0.061	-2
56	CCc1c(O)cc(=O)n(-c2ccccc2)c1-c1ccccc1	1.1	-19	1	-4	1.5	-0.11	-11
57	Cc1scc(C(=O)N/N=C/c2ccsc2)c1C	.	-7	3	-32	-1.4	-0.014	-4
58	CC1(C)Cc2ccccc2C(/C(=N/O)C(N)=O)=N1	1.1	-23	3	-4	-0.6	.	1
59	CCCC(=O)n1nc(-c2ccc(OC)cc2)nc1N	-0.1	4	10	10	0.3	.	23
60	COc1cc(OC)cc(C(=O)N[C@H](C(=O)OCC(=O)c2ccc3c(c2)NC(=O)CO3)C(C)C)c1	-0.2	-1	1	7	-3.3	0.46	-3
61	CC(=O)c1cccc(N(CC(=O)N2CCCC2)S(C)(=O)=O)c1	0.8	-1	-1	4	-0.6	.	-8
62	Cn1nccc1C(=O)NC(=S)Nc1sc2c(c1C#N)CCCCC2	1.2	-22	-1	4	-0.1	.	1

Filtered by structure, those above containing a cyano group.
no.	SMILES	L929 necroptosis	KLK5 inh	Hck-Nef inh	Rad51 HR inh	TNF death inh	Cl transport mod	Thrombin inh
1	N#Cc1cc([N+](=O)[O-])ccc1NC(=O)COC(=O)C12CC3CC(CC(C3)C1)C2	2.1	-11	12	.	0.0	-1.1	-5
29	COc1ccc(C2C(C#N)=C(N)Oc3cc(C)n(Cc4ccco4)c(=O)c32)cc1 (centres undefined)	0.2	-10	-2	-24	-2.8	0.42	-8
31	Cc1cccc(C)c1Nc1nnc(SCC(=O)Nc2sccc2C#N)s1	-0.2	-3	2	.	1.2	-1.5	1
38	N#CC(c1ccncc1)(c1ncc(C(F)(F)F)cc1Cl)N1CCOCC1 (centres undefined)	0.7	7	24	3	1.5	0.063	0
39	COc1ccc(C(C#N)Nc2ccccc2C)cc1 (centres undefined)	0.3	4	1	-2	-0.6	0.57	-1
53	CCCCc1nc(NCC2CCCO2)c(C#N)c2c1COC(C)(C)C2 (centres undefined)	0.5	12	-1	6	-1.8	-0.53	-4
62	Cn1nccc1C(=O)NC(=S)Nc1sc2c(c1C#N)CCCCC2	1.2	-22	-1	4	-0.1	.	1

High-throughput results deposited in PubChem BioAssay by several laboratories.
